FEN1 inhibitor: qHTS Assay for the Inhibitors of Human Flap endonuclease 1 (FEN1); P39748; Recombinant FEN1 flap cleavage, fluorescence, 15 min; Potency, µM (top dose mostly 114 µM), for the others: top-dose activity change, negative = inhibition, most hits filed as inhibitors; 390,000 tested, 0.35% active; AID 588795, 2011; note: nearly all actives have a fitted effect of over 65% in size
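With each library titrated from low to high concentration, compounds met 10 nM FEN1 for 15 min at room temperature before 50 nM substrate was added; readings at 0 and 15 min fed four-parameter Hill curve fits.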
GCN5L2 inh: qHTS Assay for Inhibitors of GCN5L2. Potency, µM (top dose mostly 58.9 µM), without a hit: at the highest dose activity change, negative = inhibition, hits mostly inhibitors. Histone acetyltransferase KAT2A (Homo sapiens), Q92830. GCN5L2 HAT assay, ThioGlo1 CoA-SH fluorescence. AID 504327, 2011. 390,000 tested, 0.21% active
Target sequence (Q92830 whole entry, looked up): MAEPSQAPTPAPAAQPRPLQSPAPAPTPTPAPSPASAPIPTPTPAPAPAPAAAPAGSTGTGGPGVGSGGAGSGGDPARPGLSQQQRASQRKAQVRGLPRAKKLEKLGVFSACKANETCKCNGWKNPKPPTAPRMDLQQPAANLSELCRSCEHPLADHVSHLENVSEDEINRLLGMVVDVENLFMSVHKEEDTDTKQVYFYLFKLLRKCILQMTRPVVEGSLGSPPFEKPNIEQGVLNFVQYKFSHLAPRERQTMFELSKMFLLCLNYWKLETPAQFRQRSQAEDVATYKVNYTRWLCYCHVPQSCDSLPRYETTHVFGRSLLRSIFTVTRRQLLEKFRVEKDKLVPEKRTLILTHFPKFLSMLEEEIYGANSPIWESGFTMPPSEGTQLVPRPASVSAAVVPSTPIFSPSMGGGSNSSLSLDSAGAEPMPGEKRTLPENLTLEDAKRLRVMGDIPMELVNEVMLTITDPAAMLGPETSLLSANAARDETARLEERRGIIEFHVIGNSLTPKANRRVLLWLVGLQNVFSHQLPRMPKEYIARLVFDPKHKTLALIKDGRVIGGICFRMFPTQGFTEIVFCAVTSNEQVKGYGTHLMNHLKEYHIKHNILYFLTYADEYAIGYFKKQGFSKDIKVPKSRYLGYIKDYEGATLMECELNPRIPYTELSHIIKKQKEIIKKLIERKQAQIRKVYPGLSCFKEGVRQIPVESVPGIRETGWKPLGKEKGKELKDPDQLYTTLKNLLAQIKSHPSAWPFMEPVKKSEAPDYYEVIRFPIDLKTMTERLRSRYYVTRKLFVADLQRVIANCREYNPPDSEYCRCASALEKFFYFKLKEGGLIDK
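Free CoA generated was detected with ThioGlo1 (50uM) fluorescence at Ex340nm/Em540nm, read immediately and after 20 min at room temperature. Enzyme, 20 nM in HEPES pH 7.5 buffer, saw compounds 15 min before adding 75uM H3(1-25) peptide and 70uM acetyl-CoA.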
* marks the source's active call; other numbers are inactive results; ? = inconclusive; . = not tested or not shown; & = joins results of further samples. Calls come from the whole dose curve; as a rule, active = well fitted curve in the direction sought with a large enough effect; inconclusive = small, poorly fitted or top-dose-only effect, or another doubt; inactive = no such curve, though single readings can be large; an effect the other way counts as inactive or inconclusive. % is set by controls: 0 for no effect and ±100 for the full control effect; potency is the fitted concentration of half-maximal effect.

FEN1 inhibitor | GCN5L2 inh | molecule
-5% | 6% | COc1cccc(CNS(=O)(=O)c2cc3c(cc2C)NC(=O)CO3)c1
-16% | ? | Cc1ccc(-c2nnc(N3CCN(C(=O)COc4ccccc4)CC3)c3ccccc23)cc1
-2% | -2% | Fc1ccc(/C=N/N2CCN(Cc3ccccc3)CC2)cc1
. | ? | Cc1cc2c(c(=O)n1-c1ccccc1)C1O[C@](c3ccsc3)(Cc3cc(C#N)ccc31)O2
-18% | -12% | Cn1ccnc1SCC(=O)Nc1ccc2c(c1)OCO2
0% | -20% | O=C(OCc1ccccc1)c1cccnc1Cl
-2% | 1% | Cc1c(NCc2cccnc2)cccc1C(=O)O
-18% | -3% | O=C(NCc1ccc(F)cc1)c1cc(C(=O)C2CC2)c[nH]1
-10% | -1% | Cc1ccc(C)n1C1CCS(=O)(=O)C1 (configuration not stated)
-1% | -11% | CC(=O)c1sc(N/N=C\c2cccc(Br)c2)nc1C
-18% | -4% | Cc1cc(C)c(S(=O)(=O)N2CCCCC2CCNC(=O)C(=O)NCc2ccco2)c(C)c1 (configuration not stated)
3% | 0% | Cc1ccccc1NC(=O)c1ccc(NC(=O)c2ccco2)cc1
-6% | -1% | O/N=C1\CCCCc2ccccc21
-14% | -11% | CCN(CC)S(=O)(=O)c1ccc(NC(=O)COC(=O)c2ccc(Br)o2)cc1
7% | -4% | COc1ccc(N(CC(=O)Nc2cccnc2)S(=O)(=O)c2ccccc2)cc1Cl
. | -20% | Cc1cccc(/C=C\c2ccccc2)n1
4% | -1% | O=S(=O)(c1ccccc1)c1nc(NCc2cccnc2)sc1Cl
-4% | 0% | Cc1ccc(-c2nc3ncccc3o2)cc1NC(=O)COc1ccccc1
-12% | -2% | FC(F)(F)c1ccc2c(c1)N1CCCC1CN2 (configuration not stated)
15% | -8% | CCn1c(=O)n(CC)c2cc(NS(=O)(=O)c3ccccc3)ccc21
2% | -3% | CC(=O)N1CSCC1C(=O)NNS(=O)(=O)c1cccc(C(F)(F)F)c1 (configuration not stated)
1% | 2% | Cc1ccccc1CN1CCN(C2CCC2)CC1CCO (configuration not stated)
7% | -11% | Cc1cc(C)n(-c2nc3sc4c(c3c3nnc(SCC(N)=O)n23)CC(C)(C)OC4)n1
5% | -8% | O=C1CC[C@@H](CN(Cc2ccccn2)Cc2nc(-c3ccc(C(F)(F)F)cc3)no2)N1
3% | -1% | Cc1ccc(N2C(=O)N3[C@H](c4ccc(F)cc4)[C@@H]4C(=O)N(C5CCCCC5)C(=O)[C@@H]4[C@]3(C)C2=O)cc1
3% | 1% | COc1cccc(S(=O)(=O)Nc2cccc(C(=O)N3CCOCC3)c2)c1
-3% | -3% | COCCCN(C(=O)CCOc1ccc(C)cc1)c1c(N)n(Cc2ccccc2)c(=O)[nH]c1=O
-14% | -1% | CCOC(=O)c1nnn(-c2nonc2N)c1COc1ccc(F)cc1
-2% | 2% | COc1ccccc1/C=C/C(=O)N1CCOCC1
0% | -3% | COc1ccc(NC(=O)NC2(C(=O)N3CCCC3)CCCCC2)cc1
8% | -1% | COCCCn1c(SCC(=O)NC2CCCCC2)nnc1-c1ccncc1
7% | -7% | CCOC(=O)C1=C(C)N2C(=C(C#N)[C@@H]1c1ccc(C(=O)OC)cc1)SC[C@@]2(O)C(C)(C)C
-2% | -3% | CCNC(=O)CC1C(=O)N(c2ccccc2)C(=O)N1CCC(C)C (configuration not stated)
4% | ? | C=C1c2cc(C)c(C)cc2NC(=O)N1c1ccccc1
-2% | -8% | CNCC/C=C1/c2ccccc2CSc2ccccc21
8% | -8% | CCOC(=O)Cc1csc(NC(=O)COc2ccc(C)c(C)c2)n1
0% | -2% | O=C(CSc1ccc2nnc(CCNC(=O)c3ccccc3)n2n1)NCc1ccco1
7% | 0% | CCc1c(C)c(C#N)c2nc3ccccc3n2c1NC
2% | -7% | CCN(C1CCCCC1)S(=O)(=O)c1cc2c3c(c1)CCN3C(=O)CC2
4% | -22% | CCN(CC)C(=O)c1sc(NC(=O)c2ccc(C)c([N+](=O)[O-])c2)c(C#N)c1C
? | -19% | O=c1[nH]cc(N=Cc2cc(Cl)cc(Cl)c2O)c(=O)[nH]1
0% | -7% | CSc1ncccc1C(=O)Nc1ccc(F)c(F)c1F
2% | -4% | CN(C)C(=S)NC(C)(C)C
-1% | -5% | CCCN(Cc1nnc(-c2ccccc2Cl)o1)C(=O)c1cc([N+](=O)[O-])cc([N+](=O)[O-])c1
-12% | -1% | CCCOc1ccc(S(=O)(=O)NCCN2CCOCC2)c2ccccc12
. | -7% | CC(C)(C)N1CCC1C(N)=O (configuration not stated)
6% | 1% | Cc1ccc(S(=O)(=O)Nc2c(O)c3ccccc3oc2=O)cc1
-1% | -7% | CNC(=O)NC(=O)C(C)Oc1ccccc1F (configuration not stated)
-2% | -2% | COC(=O)[C@H](CCSC)NC(=O)Nc1ccc(C)cc1C
1% | 0% | COc1cc(C(=O)O)ccc1OCc1c(C)noc1C
0% | 2% | Cc1ccc(C(=O)c2coc3ccc(O)c(CN(C)C)c23)cc1
-3% | -3% | CC(NC(=O)CSC1=NCCS1)c1ccccc1 (configuration not stated)
8% | -1% | O=C(O)c1ccc(S(=O)(=O)Nc2ccc3c(c2)OCCO3)cc1
-8% | -6% | COc1cc(NS(=O)(=O)c2ccc(NC(=O)c3cccs3)cc2)nc(OC)n1
0% | 0% | COc1ccc(O)c(CN2CCN(CCCc3ccccc3)C(CCO)C2)c1 (configuration not stated)
-10% | -20% | O=C(NCc1cccs1)c1cc(S(=O)(=O)N2CCOCC2)c(Cl)cc1Cl
-4% | 1% | CCC(C)NC(=O)Cc1c(OC)ccc2cc(Br)ccc12 (configuration not stated)
-4% | 12% | Cc1nc2ccc(NC(=O)c3nn(C(C)C)c(=O)c4ccccc34)cc2s1
-6% | -1% | O=S(=O)(c1ccc(Cl)s1)N1CCN(c2ncccn2)CC1
-2% | 2% | Cc1ccc(NCc2nnc(SCC(=O)NNC(=O)Cc3ccccc3)n2C)cc1

18 neighbouring entries out of the list so far, quoted:
FEN1 inhibitor | GCN5L2 inh | molecule
? | -19% | O=c1[nH]cc(N=Cc2cc(Cl)cc(Cl)c2O)c(=O)[nH]1
0% | -7% | CSc1ncccc1C(=O)Nc1ccc(F)c(F)c1F
2% | -4% | CN(C)C(=S)NC(C)(C)C
-1% | -5% | CCCN(Cc1nnc(-c2ccccc2Cl)o1)C(=O)c1cc([N+](=O)[O-])cc([N+](=O)[O-])c1
-12% | -1% | CCCOc1ccc(S(=O)(=O)NCCN2CCOCC2)c2ccccc12
. | -7% | CC(C)(C)N1CCC1C(N)=O (configuration not stated)
6% | 1% | Cc1ccc(S(=O)(=O)Nc2c(O)c3ccccc3oc2=O)cc1
-1% | -7% | CNC(=O)NC(=O)C(C)Oc1ccccc1F (configuration not stated)
-2% | -2% | COC(=O)[C@H](CCSC)NC(=O)Nc1ccc(C)cc1C
1% | 0% | COc1cc(C(=O)O)ccc1OCc1c(C)noc1C
0% | 2% | Cc1ccc(C(=O)c2coc3ccc(O)c(CN(C)C)c23)cc1
-3% | -3% | CC(NC(=O)CSC1=NCCS1)c1ccccc1 (configuration not stated)
8% | -1% | O=C(O)c1ccc(S(=O)(=O)Nc2ccc3c(c2)OCCO3)cc1
-8% | -6% | COc1cc(NS(=O)(=O)c2ccc(NC(=O)c3cccs3)cc2)nc(OC)n1
0% | 0% | COc1ccc(O)c(CN2CCN(CCCc3ccccc3)C(CCO)C2)c1 (configuration not stated)
-10% | -20% | O=C(NCc1cccs1)c1cc(S(=O)(=O)N2CCOCC2)c(Cl)cc1Cl
-4% | 1% | CCC(C)NC(=O)Cc1c(OC)ccc2cc(Br)ccc12 (configuration not stated)
-4% | 12% | Cc1nc2ccc(NC(=O)c3nn(C(C)C)c(=O)c4ccccc34)cc2s1

More structures follow.
FEN1 inhibitor | GCN5L2 inh | molecule
-5%&-7% | -3%&-4% | COc1ccc(NC(=O)CN(C)S(=O)(=O)c2ccc3c(c2)CCCN3C(C)=O)cc1
-2% | -2% | CCCn1c(N2CCN(CC(=O)c3c(C)n(C)c4ccccc34)CC2)nc2c1c(=O)[nH]c(=O)n2C
2% | -3% | CCS(=O)(=O)N1Cc2ccccc2CC1C(=O)Nc1ccc(OC)cc1OC (configuration not stated)
-16% | -8% | Cc1ccc(-c2nc(CS(=O)CC(=O)NC3CCC(C)CC3)c(C)o2)cc1 (configuration not stated)
5% | 1% | COc1cccc(OC)c1NC(=O)CN1CCC(NC(=O)c2cccc(F)c2)CC1
-5% | 0% | Cc1cc(C)nc(NC(=O)c2cc3ccccc3o2)n1
1% | -4% | CCCCOc1ccc(-c2[nH]ncc2C=O)cc1
-9% | -3% | CN(c1ccccc1C(=O)N1CCc2ccccc2C1)S(C)(=O)=O
16% | -7% | Cc1c(C(=O)N2CCC(C)CC2)cccc1[N+](=O)[O-]
-7% | 5% | OCCC1CN(Cc2ccc3c(c2)CCO3)CCN1C1CCCC1 (configuration not stated)
23% | -3% | O=C(O)c1ccccc1C(=O)NC1CCCCNC1=O (configuration not stated)
-13% | -18% | COc1ccc(-c2nc(CSCC(=O)NCc3ccco3)c(C)o2)cc1
-9% | -8% | O=C1CSC(c2cccnc2)N1CCc1ccccn1 (configuration not stated)
-15% | -10% | Cc1ccc(OCCCCn2cnc3ccccc32)c(C)c1
-2% | 0% | Oc1ccc(N2CCN(c3nnnn3-c3ccccc3)CC2)cc1
1% | -1% | Cc1ccc(S(=O)(=O)NCC(=O)N(CC(=O)NCc2ccco2)Cc2ccc3c(c2)OCO3)cc1
-3% | -4% | O=C(NC(c1ccccc1)c1ccccn1)c1cccc([N+](=O)[O-])c1 (configuration not stated)
-18% | ? | CC1CCCN(Cc2cccc(Oc3ccccc3)c2)C1 (configuration not stated)
-2% | . | COc1cccc2c1CCC1=CC(=O)CCC12C (configuration not stated)
-3% | 28% | CCCn1c(Sc2nc3c(c(=O)[nH]c(=O)n3C)n2CCC)nc2c1c(=O)[nH]c(=O)n2C
-5% | -6% | Cc1cccc(-n2c(C)c(-c3ccccc3)[nH]c2=S)c1
-16% | -1% | COCCN(C(=O)c1csnn1)C(C(=O)NC1CCCCC1)c1ccccc1 (configuration not stated)
1% | -3% | O=C(C[n+]1ccccc1)N1c2ccccc2Sc2ccccc21
-18% | -1% | COc1ccc(S(=O)(=O)N2CCN(c3ccccn3)CC2)c(OC)c1
. | 0%&-2% | OC[C@H]1O[C@@H](n2cnc3cncnc32)[C@H](O)[C@@H]1O
-2% | -2% | COc1ccc(-c2nc(C#N)c(N3CCCCC3)o2)cc1
-6% | -7% | O=C(O)c1ccc(CN(c2ccccc2)S(=O)(=O)c2ccccc2)cc1
-8% | -13% | CCN(Cc1ccccc1)S(=O)(=O)c1cc2c3c(c1)CCN3C(=O)CC2
-3% | 0% | CC/C(=N\NC(=O)C(N)=O)c1ccccc1O
-2% | -18% | O=C(c1cc(COc2ccc(F)c(F)c2)on1)N1CCN(C/C=C/c2ccccc2)CC1
18% | -4% | CCN1C(=O)CC(N2CCC(C(=O)N3CCCCCC3)CC2)C1=O (configuration not stated)
14% | 2% | Cc1cccc(OCC(=O)Nc2ccc(N3CCN(C(=O)c4ccco4)CC3)cc2)c1C
-12% | -1% | COc1ccc(C)cc1NC(=O)Cn1cnnn1
16% | -3% | C#CCOC(=O)Nc1cc(C)n(-c2ccccc2)n1
0% | -3% | O=C(NCC(O)c1ccccc1)c1ccccc1 (configuration not stated)
5% | -7% | O=C(NCCN1CCCc2ccccc21)C1CCC(=O)N(CCc2ccccc2)C1 (configuration not stated)
6% | -22% | N#CC1=C(N)Oc2ccccc2C12C(=O)Nc1n[nH]c(-c3ccccc3)c12 (configuration not stated)
-17% | -1% | COc1ccc(CSc2nc3ccccc3c(=O)[nH]2)cc1F
-3% | 0% | CC1CCN(S(=O)(=O)c2ccc(C(=O)OC(C)C(=O)N(C)C3CCCCC3)cc2)CC1 (configuration not stated)
-1% | -2% | Cc1onc(-c2c(F)cccc2Cl)c1C(=O)NC(=S)NC1CCS(=O)(=O)C1 (configuration not stated)
2% | -7% | Cc1cccc(NC(=O)Nc2ccc3c(c2)CCC3)c1
0% | -8% | CCc1nc(SCC(=O)Nc2cc(C)on2)c2c(=O)n(C)c(=O)n(C)c2n1
-1% | -5% | COc1ccc(N2CC(C(=O)Nc3ccc4c(c3)OCO4)CC2=O)cc1 (configuration not stated)
8% | -6% | Clc1nc(N2CCOCC2)ncc1Br
2% | -12% | COc1cccc(/C=C2\SC(=S)N(N3C(=O)CCCC3=O)C2=O)c1
-10% | -5% | CCCCn1c(SCC(=O)NCc2ccco2)nc2c1c(=O)n(C)c(=O)n2C
-2% | 0% | OCCN(Cc1ccccc1)CC1CC=CCC1 (configuration not stated)
-16% | -12% | Cc1ccc(NC(=O)c2ccccc2NC(=O)Cc2ccccc2)cc1

Source: PubChem

An excerpt; most or all hits stand in other tables.
